# A488 fluor: A488 region autofluorescence. compound autofluorescence, A488 spectral region, dye equivalency; stronger effect = higher value. max dye equivalency, M. 59,000 compounds, 0.1% hits; active = above 10 nM dye equivalent; inconclusive = 1 to 10 nM; inactive = 1 nM or less; about half of its hits are not listed in these tables;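 note: highest value over a series up to 38 µM; compound alone in buffer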
#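 Readout is A488 dye-equivalent concentration, calibrated by a per-plate six-point Alexa 488 series. Compounds in 100 mM Tris buffer pH 8.0 were incubated 15 min at room temperature. Plates were imaged using 480 nm excitation/540 nm emission filters.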
# TSHR ag: TSH receptor (human) agonism. P16473. HEK293-CNG-TSHR cells (CNG channel as cAMP sensor), membrane potential dye, cAMP. Potency, µM (titrated, usually from 57.1 µM), without a hit: at the top dose activation, actives largely listed as activators. 73,000 compounds, 0.48% hits. AID 926; active = well fitted activation curve of enough size with the parental cells flat; inconclusive = any curve in the parental cells; inactive = parental cells flat and receptor cells flat or falling; note: potency is the fitted concentration of half-maximal effect; % of control where 0% means no effect; weak receptor curves with flat parental cells got no call and are not listed
# Target sequence (P16473 whole entry, looked up): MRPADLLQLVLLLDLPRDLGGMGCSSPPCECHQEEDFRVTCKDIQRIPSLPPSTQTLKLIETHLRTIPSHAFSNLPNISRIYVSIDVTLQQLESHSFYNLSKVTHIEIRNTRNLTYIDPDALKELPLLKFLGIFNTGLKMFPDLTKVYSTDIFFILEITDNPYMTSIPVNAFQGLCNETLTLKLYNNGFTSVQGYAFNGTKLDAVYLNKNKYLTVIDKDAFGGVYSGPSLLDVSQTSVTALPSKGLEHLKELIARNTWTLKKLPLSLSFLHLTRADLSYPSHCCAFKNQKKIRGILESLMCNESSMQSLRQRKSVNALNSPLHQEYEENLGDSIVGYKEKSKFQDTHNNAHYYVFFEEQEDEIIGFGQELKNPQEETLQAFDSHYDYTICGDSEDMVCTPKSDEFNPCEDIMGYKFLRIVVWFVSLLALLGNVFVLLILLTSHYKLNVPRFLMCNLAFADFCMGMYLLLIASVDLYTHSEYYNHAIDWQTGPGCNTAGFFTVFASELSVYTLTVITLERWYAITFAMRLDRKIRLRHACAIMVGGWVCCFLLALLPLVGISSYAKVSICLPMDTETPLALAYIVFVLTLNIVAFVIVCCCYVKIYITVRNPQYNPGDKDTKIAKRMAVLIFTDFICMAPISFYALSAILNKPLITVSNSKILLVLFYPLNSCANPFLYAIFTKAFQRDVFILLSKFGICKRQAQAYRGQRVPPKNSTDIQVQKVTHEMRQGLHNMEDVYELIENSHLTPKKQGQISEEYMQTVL
#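 HEK 293 cells stably expressing TSHR and a modified CNG channel, with CNG-only parental cells as counterscreen, were preloaded 60 min at room temperature with membrane potential dye containing 100 uM RO 20-1724. Compound exposure was 30 min, and depolarization was read as fluorescence at 590 nm.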
# A647 autofl: compound autofluorescence in A647 spectral region; Compound fluorescence, A647 channel (570/671 nm), Tris buffer; max dye-equivalent concentration, M; 59,000 tested, under 10 active; AID 592; active means above 1 µM dye equivalent; inconclusive means 0.1 to 1 µM; inactive means 0.1 µM or less;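 note: values scaled relative to a standard on each plate; highest value over a series up to 38 µM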
#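 Compound fluorescence was measured in 100 mM Tris buffer, pH 8.0, after 15 min at room temperature, using 570 nm excitation and 671 nm emission filters. Signal was normalized to a per-plate Alexa 647 standard curve and expressed as dye-equivalent concentration at each compound concentration.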
# AID923: qHTS Assay for Allosteric/Competitive Inhibitors of Caspase-1: Spectroscopic Profiling in AFC Spectral Region; compound fluorescence, AFC spectral region (405/520 nm); almost no hit is shown here; Potency, µM (series often up to 57.5 µM), for inactives: at the highest dose fluorescence increase, most hits filed as activators; 75,000 compounds, 1.1% hits; AID 923, 2007; active = well fitted activation curve with a large enough effect; inconclusive = small, poorly fitted or top-dose-only effect;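 note: potency is the fitted concentration of half-maximal effect; 0% is about no effect; scaled to a free AFC standard on each plate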
#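 Compound autofluorescence profiled at 405 nm ex/520 nm em during kinetic caspase 1 run (50 nM enzyme, 5 uM Ac-WEHD-AFC, HEPES pH 7.5, 10 mM DTT). Titration up to 57 uM; baseline from regression intercept, normalized to AFC standard curve.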
# Resorufin fluor: compounds fluorescent in resorufin spectral region; Compound fluorescence, resorufin region 547/598 nm, buffer; stronger effect = higher value; max dye-equivalent concentration, M; 59,000 compounds, 0.04% hits; AID 588; active = above 10 nM dye equivalent; inconclusive = 1 to 10 nM; inactive = 1 nM or less; a few of its hits are not listed in these tables; note: highest value over a series up to 38 µM
#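 Tris 100 mM pH 8.0; compound added, 15 min RT; CCD imager read, ex 547 nm/em 598 nm; signal normalized to resorufin standard curve (six concentrations per plate) as dye-equivalent concentration.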
# * hit, by the source's call; i = inactive; ? = inconclusive; . = no result given; [ ] = remark or other dose.
SMILES,A488 fluor,TSHR ag,A647 autofl,AID923,Resorufin fluor
CCOC(=O)CC(=O)CSCC(=O)Nc1ccc(C)cc1,i,-5%,2.2e-08,0.1%,i
Cc1nn(-c2ccccc2)c(C)c1C(=O)OCC(=O)N1CC(=O)Nc2ccccc21,i,12%,3.3e-09,-0.7%,i
COc1ccccc1-c1cc(C(=O)NCc2ccccc2)no1,i,-3%[11.4 µM],1e-09,0.2%,i
C=CCOc1cccc(C2C(C(=O)c3ccco3)=C(O)C(=O)N2Cc2ccncc2)c1 (stereo not drawn),i,8%,2.4e-08,2.0%,i
Cc1ccc(-n2c(SCC(=O)NCC3CCCO3)nc3c(c2=O)SCC3)cc1 (stereo not drawn),i,8%,2.2e-08,0.2%,i
Cc1cccc(-c2cc3nc4c(c(N5CCOCC5)n3n2)CCCC4)c1,i,?,1.9e-08,1.2%,i
COc1ccc2c(c1OC)C(=O)N1c3ccccc3C(=O)N(c3ccccc3F)C21 (stereo not drawn),i,.,1e-09,.,i
O=C(CSc1nnc(-c2ccc(F)cc2)o1)Nc1ccc(S(=O)(=O)N2CCCC2)cc1,i,0%,2.3e-09,1.2%,i
COc1ccc2c(c1OC)C(=O)N(c1cccc(C(F)(F)F)c1)C2,i,?,1e-09,0.9%,i
O=C(CN(C(=O)CCC(=O)Nc1nccs1)c1ccc(F)cc1)NCc1ccco1,i,-1%,1e-09,-0.3%,i
Cc1nc2cnc(OCc3ccccc3)nc2n(CCC#N)c1=O,i,?,4.8e-09,0.6%,i
Cc1nc2ccccc2n1CCc1nc2c3ccccc3nc(SCC(=O)NCc3ccco3)n2n1,i,20%,2.6e-08,-0.2%,i
Cc1ccc(OCCCCn2ccnc2)c(Cl)c1,i,17%,3.6e-08,3.6%,i
CN1CCN(c2ccccc2NC(=O)c2ccc(Br)o2)CC1,i,3%,4.6e-08,-0.9%,i
Cc1cc(=O)oc2cc(OCC#N)ccc12,.,-1%,.,-0.6%,.
Cc1ccccc1Cn1c(-c2cncs2)nc2ccccc21,i,?,1e-09,-0.9%,i
COCCCN(C(C)=O)c1nc(-c2ccccc2)cs1,i,21%,1.7e-09,-1.0%,i
Cc1ccsc1C(C(=O)NC1CCCCC1)N(C(=O)c1csnn1)C1CC1 (stereo not drawn),i,11%,1e-09,1.0%,i
CCN(CC)S(=O)(=O)c1ccc(-c2nnc3sc4cccc(C)c4n23)cc1,.,?,.,0.5%,.
N/C(=N\S(=O)(=O)c1ccc(Cl)s1)c1ccccc1,i,.,4.7e-08,.,i
COCCn1c(=O)cnc2cnc(Oc3ccc(OC)cc3)nc21,i,1%,1.4e-09,3.5%,i
CCCCN(C(=O)c1c(C)[nH]c(C(=O)OCC)c1C)c1ccccc1,i,17%,2e-08,2.0%,i
O=C1NCCN1CCNS(=O)(=O)c1ccc2ccccc2c1,i,5%[11.4 µM],6.2e-09,-1.5%,i
CCOc1ccccc1-n1nnnc1SCC(=O)Nc1cc2oc3ccccc3c2cc1OC,i,?,2.8e-09,-0.3%,i
O=C(OCC1COc2ccccc2O1)c1c(F)cccc1F (stereo not drawn),i,-3%[11.4 µM],1.8e-08,-0.3%,i
COc1cccc(NC(=O)NCc2cccn2C)c1,i,5%,1.9e-08,0.1%,i
CCn1c(SCC(=O)NCc2cccs2)nnc1-c1ccco1,i,0%,3.3e-08,1.0%,i
Cc1cc(C(=O)Nc2ccc(S(=O)(=O)Nc3onc(C)c3C)cc2)cs1,i,4%,1e-09,-0.1%,i
CCOC(=O)C1CCCN(C(=O)C2CCN(S(=O)(=O)c3cccs3)CC2)C1 (stereo not drawn),i,2%,4.8e-09,0.0%,i
c1nc(N2CCN(Cc3ccc4c(c3)OCO4)CC2)c2[nH]cnc2n1,.,3%,.,-3.5%,.
O=C(CN1C(=O)c2ccccc2C1=O)Nc1ccc(N2CCOCC2)cc1,i,-4%,1e-09,-1.1%,i
CCOCCCNC(=O)C1CCN(C(=O)Nc2ccc(C)cc2)CC1,i,-7%,2.8e-09,-0.4%,i
COCCNc1nc(-c2ccccc2C)nc2ccccc12,i,9%,2e-09,-2.2%,i
COc1ccc(CCn2c(N)c(S(=O)(=O)c3cccs3)c3nc4ccccc4nc32)cc1OC,i,-6%,9.8e-09,-0.6%,i
Cc1cc(-c2nnc3n2CCCCC3)c(C)n1-c1ccccc1,i,9%,3.1e-09,-2.3%,i
Cn1c(=O)c2c(nc(NCc3ccccc3)n2CCCc2ccccc2)n(C)c1=O,i,-7%,1e-09,-0.5%,i
CN(C)c1ccc(C=NCCC2(O)CCOC(C)(C)C2)cc1 (stereo not drawn),i,.,1.3e-08,.,i
CN1CCN(C(=O)c2ccc3ccccc3c2)CC1,.,?,.,2.1%,.
O=C(O)CCc1nn2cc(-c3ccccc3)nc2[nH]c1=O,i,.,1e-09,.,i
Cc1nc(N=Nc2ccc(C(=O)O)cc2)c(COP(=O)(O)O)c(C=O)c1O,i,.,6.5e-08,3.2%,i
Cc1ccc(-c2nnc3n2N=C(c2ccccc2)CS3)cc1,.,8%,.,0.3%,.
C[C@@H](C(=O)O)/C(=C/c1ccc2c(c1)OCO2)C(=O)O,i,3%[11.4 µM],5.1e-08,2.7%[11.5 µM],i
CC(=O)Oc1ccc(/C=C\C(=O)C[C@@H]2O[C@@H](Oc3cc(OC(C)=O)c4c(c3)O[C@@H](c3ccc(OC(C)=O)cc3)CC4=O)[C@H](OC(C)=O)[C@H](OC(C)=O)[C@@H]2OC(C)=O)cc1,i,-5%,5.2e-09,.,i
CCOC(=O)CC1C(=O)NC2CCCCC2N1C(=O)Nc1ccc(Cl)cc1 (stereo not drawn),i,4%,8.2e-09,0.1%,i
Cn1cc(CNC(=O)C2CCCCC2)cn1,i,-5%,1.7e-08,-0.4%,i
CCOc1cc(C(=O)NCC(C)CN(C)C)cc(OCC)c1OCC (stereo not drawn),i,0%,7.3e-09,-2.3%,i
COC(=O)[C@@]1(Cc2ccccc2)[C@H]2c3cc(C(=O)N(C)C)n(Cc4ccsc4Br)c3C[C@H]2CN1C(=O)c1ccccc1,.,?,.,0.1%,.
CCc1nnc(NC(=O)CSc2nnc(Cc3ccccc3)n2-c2ccccc2)s1,i,?,3.7e-08,-3.2%,i
Cc1cccc(CCNC(=O)C2CCN(S(=O)(=O)c3c(C)nn(C)c3C)CC2)c1,i,8%,1.5e-08,1.9%,i
CCOC(=O)c1ccc2[nH]c3c(c2c1)CN(C)CC3,.,6%,.,-0.1%,.

# Filtered by structure, the compounds so far with bromine (two)
SMILES,A488 fluor,TSHR ag,A647 autofl,AID923,Resorufin fluor
CN1CCN(c2ccccc2NC(=O)c2ccc(Br)o2)CC1,i,3%,4.6e-08,-0.9%,i
COC(=O)[C@@]1(Cc2ccccc2)[C@H]2c3cc(C(=O)N(C)C)n(Cc4ccsc4Br)c3C[C@H]2CN1C(=O)c1ccccc1,.,?,.,0.1%,.

# New compounds follow.
SMILES,A488 fluor,TSHR ag,A647 autofl,AID923,Resorufin fluor
COc1ccccc1N1CCN(C(=O)C(C)N(c2ccc(C)c(C)c2)S(C)(=O)=O)CC1 (stereo not drawn),i,0%,1e-09,0.8%,i
Cc1sc2ncnc(-n3cnc4ccccc43)c2c1C,i,-3%,2.3e-08,-1.2%,i
CCCOC(=O)c1ccc(Oc2c(-c3ccc(OC)cc3O)n[nH]c2C)cc1,i,.,3.6e-09,-1.3%,i
O=C1CC(Cc2ccccc2)C(=O)N1c1ccc(Cl)cn1 (stereo not drawn),i,-3%,1e-09,0.3%,i
Cc1nc2cnc(N3CCN(C)CC3)nc2n(C2CC2)c1=O,i,-3%,4.3e-09,14%,i
O=C(c1cnccn1)N1CCC[C@@]2(CCN(Cc3cc(C(F)(F)F)cc(C(F)(F)F)c3)C2)C1,i,?,3.5e-09,0.4%,i
CC1CCc2nn(CC(=O)NCCCN3CCOCC3)cc2C1 (stereo not drawn),.,6%,.,-1.2%,.
CCOC(=O)c1sc2nc(N3CCOCC3)c3c(c2c1N)CCC3,i,?,4.8e-09,7.0%,i
COc1ccccc1N1CCN(C(=O)C2CCN(S(=O)(=O)N3CCOCC3)CC2)CC1,i,-2%[11.4 µM],1.9e-09,-1.1%,i
O=C1CN(C(=O)COC(=O)C2=COCCO2)c2ccccc2N1,i,-1%,1.4e-08,-0.1%,i
Cc1ccc2nc(Nc3nc(=O)c4ccccc4n3C)nc(C)c2c1,i,-3%,1e-09,1.8%,i
COC(=O)[C@@]1(Cc2ccc(F)cc2)[C@H]2c3cc(C(=O)N(C)C)n(CCc4ccccn4)c3C[C@H]2CN1C(=O)c1ccccc1,.,?,.,0.5%,.
O=C(CSc1ccc2nnc(-c3cccs3)n2n1)N1CCOCC1,.,?,.,0.9%,.
Cc1cc(SCC(=O)Nc2ccccc2)nc(C)n1,i,-5%,1.2e-08,-0.6%,i
CCCc1nnc(SCC(=O)O)n1/N=C/c1ccc2c(c1)OCO2,i,9%,3.7e-09,-0.6%,i
CCOC(=O)c1ccc(NC(=O)Nc2ccn(C)n2)cc1,i,-9%,2.5e-09,-0.9%,i
CC#CCN(CC#CC)S(=O)(=O)c1ccc(S(=O)(=O)N2CCOCC2)cc1,i,15%,3.3e-08,0.4%,i
O=C(O)C1OC(C(=O)O)C2C1C(F)(F)C2(F)F (stereo not drawn),i,-3%,1e-09,-1.1%,i
Cc1nc2c3ccccc3n(CC(=O)c3ccc(F)cc3)c(=O)n2n1,.,7%,.,-3.3%,.
O=C(NCCc1nc2ccccc2[nH]1)Nc1ccccc1,.,-2%,.,0.3%,.
CCOC(=O)CSc1nc2ccccc2c(=O)n1CC,i,12%,3.7e-08,1.0%,i
CN(C)S(=O)(=O)N1CCC(CCCC2CCN(S(=O)(=O)N(C)C)CC2)CC1,.,0%,.,0.1%,.
CC1CCCCC1NC(=O)c1ccc(N2CCCC2=O)cc1 (stereo not drawn),i,13%,1.2e-09,-1.5%,i
C=C(C)CSC1=C(C#N)C(c2ccccc2)CC(=O)N1 (stereo not drawn),.,9%,.,0.1%,.
Cc1cccc(-c2noc(CCCC(=O)Nc3cccnc3)n2)c1,i,4%[11.4 µM],2.4e-09,0.7%,i
C/C(N)=C(/C#N)C(=O)CSc1ncnc2ccccc12,i,0%,3.1e-08,0.4%,i
CC1CC(OC(=O)c2ccccc2O)CC(C)(C)C1 (stereo not drawn),.,8%,.,-4.0%,.
Cn1c(SCC(=O)Nc2ccc3cn[nH]c3c2)nnc1-c1cnccn1,i,7%,1.5e-08,-2.9%,i
O=C(CCn1c(=O)oc2ccccc21)NCCN1CCc2ccccc2C1,i,2%,6.1e-09,1.2%,i
O=C(NCCCN1CCOCC1)c1ccc(CS(=O)(=O)Cc2ccccc2Cl)o1,i,-3%[11.4 µM],3.6e-08,-0.6%,i
CCOC(=O)CSc1nc2ccccc2n1CC(=O)N1CCN(c2ccccc2)CC1,i,10%,6.3e-08,-0.3%,i
O=C(CSc1nnc(CNC(=O)c2c(F)cccc2Cl)o1)c1ccccc1,i,3%[11.4 µM],4.6e-09,-0.2%,i

# Entries of single compounds, looked up by structure:
# C/C(N)=C(/C#N)C(=O)CSc1ncnc2ccccc12 is listed as A488 fluor = i; TSHR ag = 0%; A647 autofl = 3.1e-08; AID923 = 0.4%; Resorufin fluor = i
# O=C(CSc1nnc(CNC(=O)c2c(F)cccc2Cl)o1)c1ccccc1 is listed as A488 fluor = i; TSHR ag = 3%[11.4 µM]; A647 autofl = 4.6e-09; AID923 = -0.2%; Resorufin fluor = i

# Screening data: PubChem, National Center for Advancing Translational Sciences (NCATS)

# The list is partial; the hit share may differ from the screen's.
